Screening data deposited in PubChem BioAssay by Vanderbilt University.
GIRK2 act: GIRK2 channel activation; P48051; AID 1259325; HEK293-GIRK2 thallium flux, Thallos fluorescence; actives 0.05% (n = 63,000); calls only for hits at 25 µM;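 active = among the strongest 0.2% of first-round signals and kept after retests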;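 also: first round at about 10 µM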
Target sequence (P48051 whole entry, looked up): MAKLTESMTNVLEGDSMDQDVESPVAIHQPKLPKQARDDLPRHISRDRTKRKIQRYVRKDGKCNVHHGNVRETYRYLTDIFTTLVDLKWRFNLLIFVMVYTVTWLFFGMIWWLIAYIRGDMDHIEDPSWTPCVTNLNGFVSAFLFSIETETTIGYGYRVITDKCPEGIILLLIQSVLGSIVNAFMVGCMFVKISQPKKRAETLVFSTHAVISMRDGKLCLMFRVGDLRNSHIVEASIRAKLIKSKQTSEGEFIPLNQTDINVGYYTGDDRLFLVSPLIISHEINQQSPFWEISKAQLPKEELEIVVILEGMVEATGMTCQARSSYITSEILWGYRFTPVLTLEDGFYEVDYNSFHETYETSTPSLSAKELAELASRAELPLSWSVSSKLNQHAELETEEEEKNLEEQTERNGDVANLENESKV
Calls only; i = inactive. The list is partial; count on the stated rates, not on these rows.

mol	GIRK2 act
COCCn1c(=O)c2c(nc3n2CCN3c2ccc(OC)c(Cl)c2)n(C)c1=O	i
COC1CCN(S(=O)(=O)c2cccc(Cl)c2)CC1	i
COc1nn(C)cc1C(=O)Nc1ccc(C(=O)N2CCN(Cc3cccnc3)CC2)cc1	i
Cc1cc(=O)n(CC(=O)NCc2ccccc2)c(N2CCCC2)n1	i
COC(=O)CSc1nnc(-c2cccc(S(=O)(=O)N3CCCCCC3)c2)o1	i
COc1cc(NC(=O)N2CCC(Oc3ccc(C#N)cn3)CC2)cc(OC)c1	i
CC(=O)c1ccc(-c2ccccc2C(F)(F)F)o1	i
O=C(Cc1ccccc1)N1CCN(c2ccc(-c3noc(C4CC4)n3)cn2)CC1	i
COc1ccc(/C=C2\Oc3cc(OC(=O)CCCCl)ccc3C2=O)cc1OC	i
COC(=O)c1ccc(C(=O)NCC2(c3ccccc3OC)CCOCC2)cc1	i
Cc1cccc(-c2csc3c(=O)[nH]c(N4CCC(C(=O)NCCC5=CCCCC5)CC4)nc23)c1	i
COc1cccc(N2CCN(C(=O)c3ccc(-n4cccn4)nc3)CC2)c1	i
Cc1cc(CCNC(=O)c2cc(-c3ccc4c(c3)OCO4)n[nH]2)on1	i
CCOc1ccc(-c2nc(Cn3ccn4nc(-c5ccc(C)c(C)c5)cc4c3=O)c(C)o2)cc1OC	i
CC(NC(=O)C1CCC(CNS(C)(=O)=O)CC1)c1ccccc1 (centres undefined)	i
COC(=O)c1sccc1S(=O)(=O)Nc1ccc(C)c(F)c1	i
O=C(Nc1cccs1)N1CCC(COCc2ccc(Cl)cc2)CC1	i
Cc1cc(C)n(-c2nc(CCNC(=O)Cc3cccs3)cs2)n1	i
O=C(Cn1nc(-c2ccc(F)cc2)c2sc(N3CCCC3)nc2c1=O)Nc1ccccc1F	i
Cn1c(=O)n(Cc2ccccc2)c(=O)c2c1nc1n2CCCN1CCc1ccccc1	i
O=S(=O)(c1ccc(Br)s1)N1CC(c2nc3ccccc3[nH]2)C1	i
COc1ccc(CNC(=O)N2CC(c3nc(C4CC4)no3)C2)cc1OC	i
Cc1nc(-c2nnc(NC(=O)CCc3c(C)noc3C)o2)cs1	i
CCOC(=O)N1CC(Oc2nc3c(Cl)cccc3s2)C1	i
NC(=O)CSc1ncc(-c2cccc([N+](=O)[O-])c2)n1-c1ccc(OC(F)F)cc1	i
Cn1cccc1C(CNC(=O)c1ccc(Br)o1)N1CCOCC1 (centres undefined)	i
COc1ccc(-c2cc(N3CCN(C(=O)CCn4ccc(=O)[nH]c4=O)CC3)ncn2)cc1	i
CC1CCN(S(=O)(=O)c2cccn(CC(=O)Nc3ccc(F)c(Cl)c3)c2=O)CC1	i
Cc1nc(C)c(-c2ccc(OCCNC(=O)C3(c4cccs4)CCCC3)nn2)s1	i
Cc1nc(-c2cccc(NC(=O)c3coc(NC(=O)c4cnccn4)n3)c2)cs1	i
CN(C)S(=O)(=O)c1ccc(C(=O)N2CC(c3nc(-c4ccc[nH]c4=O)no3)C2)cc1	i
COc1ccccc1N1CCN(CC(O)COCC(C)c2ccccc2)CC1 (centres undefined)	i
CCOc1coc(C(=O)Nc2ccc(C)cc2)cc1=O	i
Cn1c(=O)[nH]c(=O)c2c1nc(N1CCN(Cc3ccccc3)CC1)n2CC(=O)c1ccccc1	i
O=C(NCCc1ccccc1)NCc1cccc(-c2nccs2)c1	i
Nc1c(-c2nc(-c3ccc4c(c3)OCO4)cs2)nnn1-c1cccc(Cl)c1	i
COc1ccc2nc(N3CCN(C(=O)Nc4ccccc4C(F)(F)F)CC3)sc2c1	i
Cc1nnc(C2CCCN(C(=O)c3ccc(Cl)cc3)C2)s1 (centres undefined)	i
CSc1ccccc1NC(=O)c1nnn(-c2ccccc2)c1-c1ccccn1	i
O=C(Nc1nc2c(s1)COCC2)c1ccccc1Br	i
COc1ccccc1-c1nc(C#N)c(N2CCN(C(=O)c3ccco3)CC2)o1	i
Cn1c(=O)c2cc(C(=O)Nc3ccccc3Cl)n(Cc3ccccc3)c2n(C)c1=O	i
Cn1c(=O)c2c(ncn2Cc2ccccc2)n(C)c1=O	i
Cc1csc(SCC2CCN(C(=O)c3cc(-c4ccccc4)on3)CC2)n1	i
Cc1ccc(C)c2[nH]c(=O)c(CCNC(=O)c3ccc(S(=O)(=O)N(C)C)cc3)cc12	i
O=C(CN1CC(c2nc(-c3ncccn3)no2)C1)Nc1nccs1	i
Cc1ccccc1NC(=O)N1C2CCC1COC2	i
CN(CC(=O)Nc1ccc(-n2cnnn2)cc1)c1nc2c(Cl)cccc2s1	i
COc1cccc2cc(C(=O)N3CCc4nc(NC(=O)c5ccco5)sc4C3)c(=O)oc12	i
Cc1ccc(NC(=O)c2cc3c(=O)n(C)c(=O)n(C)c3n2Cc2ccccc2)cc1F	i
CC(=O)OCC(CCn1cnc2cnc(N)nc21)COC(C)=O	i
O=C(c1cnn2c1OCCC2)N1CCC(Cc2ccccc2)CC1	i
CCOc1ccc(CCNC(=O)c2nnn(CC(=O)Nc3cc(C)ccc3C)c2N)cc1OCC	i
NC(=O)c1ccccc1OCC#CCNC(=O)c1ccc(F)c(F)c1	i
COC(=O)c1ccc2c(=O)n(-c3cc(OC)cc(OC)c3)c(N3CCC(C(N)=O)CC3)nc2c1	i
COc1ccc(CCn2c(NCCO)nc3c2c(=O)[nH]c(=O)n3C)cc1	i
O=C1/C(=C/c2ccccc2Br)Oc2c1ccc1c2CN(Cc2cccnc2)CO1	i
CCOC(=O)c1cc2c(-c3ccccc3)noc2n(C)c1=O	i
CCCCOc1ccc(C(=O)NCC#CCN2CCCCC2)cc1	i
COC(=O)c1sccc1S(=O)(=O)N1CCCSCC1CN(C)C (centres undefined)	i

The results go on:
mol	GIRK2 act
CC(C)Cn1c(-c2ccc(F)cc2)nc2c(c(=O)c3ccccc3n2C)c1=O	i
COc1ccc(F)cc1S(=O)(=O)NCC1CCS(=O)(=O)C1 (centres undefined)	i
COc1cccc(N2CC(C(=O)N3CCC(CSc4ccccn4)CC3)CC2=O)c1 (centres undefined)	i
COc1ccc(N2CCCS2(=O)=O)cc1NS(C)(=O)=O	i
COc1cc(C)cc(C(=O)O)c1C1=C(O)c2cccc(O)c2C(=O)C1=O	i
Cc1csc(SCC2CCN(C(=O)c3cccc(N(C)C)c3)CC2)n1	i
Cc1cccc2sc(OC3CCN(C(=O)c4ccc(Cl)s4)CC3)nc12	i
COCCNc1oc(-c2ccc(COc3ccc(OC)cc3)o2)nc1C#N	i
COc1ccccc1OCCn1c(C(C)(C)O)nc2ccccc21	i
O=C(NCC1CCN(C(=O)Oc2ccccc2)CC1)c1ccc(OC(F)(F)F)cc1	i
COc1ccc(CCNC(=O)c2c(O)c3sccc3[nH]c2=O)cc1OC	i
CCOCC(=O)Nc1cccc(N2CCCS2(=O)=O)c1	i

Some of these compounds in order of length of the SMILES, rising.
mol	GIRK2 act
COc1ccc(F)cc1S(=O)(=O)NCC1CCS(=O)(=O)C1 (centres undefined)	i
Cc1cccc2sc(OC3CCN(C(=O)c4ccc(Cl)s4)CC3)nc12	i
COc1cc(C)cc(C(=O)O)c1C1=C(O)c2cccc(O)c2C(=O)C1=O	i

Next part:
mol	GIRK2 act
O=C(CCc1csc(NC(=O)c2cccs2)n1)Nc1nc(-c2cccnc2)cs1	i
O=C(c1c(F)cccc1F)N1CCN(Cc2nc3ccccc3[nH]2)CC1	i
N#Cc1nc(/C=C/c2cccs2)oc1N1CCN(C(=O)c2ccccc2)CC1	i
Cn1cc(CC(=O)N2CCC(C(=O)NCC(F)(F)F)CC2)c2ccccc21	i
COc1cccc(-c2noc(Cn3ccn4nc(-c5ccc(C)c(C)c5)cc4c3=O)n2)c1	i
CCc1cccc(OCC(O)Cn2c(NC(C)CC)nc3c2c(=O)[nH]c(=O)n3C)c1 (centres undefined)	i
O=c1c(NCCc2ccc(Cl)cc2)nccn1-c1ccc(F)c(F)c1	i
COc1ccc(-c2coc3cc(OC(=O)c4ccccc4F)ccc3c2=O)cc1	i
CN(C)S(=O)(=O)NCCn1nc(-c2cccs2)n(C2CC2)c1=O	i
CC(C)CNC(=O)CSc1nnc(N)s1	i
CCOC(=O)Cc1csc(NC(=O)c2csc(-c3cc4ccccc4[nH]3)n2)n1	i
CC(C)(C)c1ccc(C(=O)CSc2ncn[nH]2)cc1	i
CCOC(=O)N1CCC(NC(=O)c2coc(NC(=O)C3CC3)n2)CC1	i
COc1cccc(NC(=O)c2csc3nc(-c4ccc(F)cc4)cn23)c1	i
O=C(CN1CCN(CC(O)C2CC2)CC1)N1CCc2ccccc21 (centres undefined)	i
CC(=O)N1N=C(c2cccs2)CC1c1cn(-c2ccccc2)nc1C (centres undefined)	i
Cc1cc(C(=O)NCc2cc(-c3cccs3)n(C3CCCC3)n2)no1	i
O=C(Nc1ccc(Cl)cc1)N1CCCC(c2nnc(Cc3ccc(F)cc3)o2)C1 (centres undefined)	i
O=C(CN1C(=O)CCC1=O)NCC1(O)CCOc2ccccc21 (centres undefined)	i
C=CCN1CC(c2nc3ccccc3n2Cc2c(Cl)cccc2Cl)CC1=O (centres undefined)	i
Cc1nc(-c2ccccc2)sc1C(=O)NCCn1ncccc1=O	i
COc1ccc(S(=O)(=O)NCCCn2ccnc2-c2ccccc2)cc1Cl	i
O=C(C1CCN(c2ccc(-n3cccn3)nn2)CC1)N1CCN(c2cccc(C(F)(F)F)c2)CC1	i
O=c1c2scc(-c3cccc(Cl)c3)c2ncn1Cc1cc(=O)n2ccccc2n1	i
Cc1cc(NC(=O)c2ccc(C(C)(C)C)cc2)n(-c2nc3c(cnn3-c3ccc(F)cc3)c(=O)[nH]2)n1	i
CC(=O)NC1C(Oc2ccccc2)OC2COC(c3ccccc3)OC2C1O (centres undefined)	i
Oc1ccc2ccccc2n1	i
Cc1ccc(C)c(NC(=O)Cn2cc(C(=O)N3CCOCC3)c(=O)c3ccc(C)nc32)c1	i
O=C(NC1CCN(C(=O)c2cn(-c3ccc(Cl)cc3)nn2)CC1)c1cc2ccccc2[nH]1	i
CCn1c(SCC(=O)NCc2ccccc2)nc2c3cc(OC)ccc3n(C)c2c1=O	i
CCOc1ccc2nc(N(CCCn3ccnc3)C(=O)c3cccs3)sc2c1	i
CC1CCc2c(sc3nc(CCC(=O)N4CCCCC4)[nH]c(=O)c23)C1 (centres undefined)	i
N#Cc1nc(-c2ccc(S(=O)(=O)N3CCOCC3)cc2)oc1NCCN1CCOCC1	i
Cc1cccc(Nc2ncc(-c3ccccc3)o2)c1	i
CSc1cccc(Nc2c(C(=O)N3CCCC3)cnc3nc(C)ccc23)c1	i
O=C(NCCOc1ccc(F)cc1)c1ccc(Cn2ccnc2)cc1	i
CCOC(=O)CCC(=O)Nc1ccccc1NC(=O)c1ccccc1OC	i
O=C(NCCC(O)c1ccc2c(c1)OCO2)Nc1ccccc1Cl (centres undefined)	i
COC(=O)CC1=CC(SCC(=O)Nc2ccc(C(F)(F)F)cc2)=Nc2ccccc2N1	i
O=C(Oc1ccc2cc(-c3nc4ccccc4s3)c(=O)oc2c1)N1CCOCC1	i
Cc1cc(-n2cc(C(=O)N3CCC(NC(=O)c4ccccc4C)CC3)nn2)ccc1F	i
COc1ccccc1-c1coc2c3c(ccc2c1=O)OCN(C1CCCCC1)C3	i
Cc1cc(-c2nnc(NC(=O)c3sc4ccccc4c3Cl)o2)nn1C	i
COc1ccccc1OCC(=O)Nc1cc(N2CCOCC2)ncn1	i
CCOc1cc(S(=O)(=O)N2CCN=C2c2ccccc2)ccc1F	i
CCCCCC(=O)/C=C/C=O	i
Cc1ccc(OCC(O)CN2CCN(c3cccc(C(F)(F)F)c3)CC2)cc1 (centres undefined)	i
CCS(=O)(=O)c1cccc(C(=O)Nc2cc(C)nn2-c2nc3ccc(F)cc3s2)c1	i
CCN(CC)c1ccc(N2C(=O)/C(=C/c3ccc4c(c3)OCO4)SC2=S)cc1	i
COc1ccccc1N1CCN(C(=O)CCn2c(=O)[nH]c3ccccc3c2=O)CC1	i
COc1cccc(C(=O)Nc2cc(N3CCCCC3)ncn2)c1OC	i
CCOC(=O)c1c(NCCc2c[nH]c3ccccc23)c2ccc(Cl)cc2[nH]c1=O	i
COc1cc(NC(=O)CC(C)C)ccc1N1CCCCC1=O	i
COc1cccc(C(=O)Nc2ccc3nc(-c4ccc(C)cc4)cc(N4CCOCC4)c3c2)c1	i
CC(C)Sc1ccc2nn(CC(=O)Nc3ccc4c(c3)OCO4)c(=O)n2n1	i
C/C(Cl)=C/Cn1c(SCC(=O)c2ccccc2)nc2c1c(=O)[nH]c(=O)n2C	i
CSc1ccccc1C(=O)Nc1c2c(nn1CC(=O)NCc1ccccc1)CSC2	i
CCOC(=O)CSc1nc2c(c(=O)n(Cc3ccccc3)c(=O)n2C)n1C	i
CN(CC(=O)NCc1ccccc1OC(F)(F)F)c1nc2c(F)cccc2s1	i
CCNC(=O)C(=O)NCCc1ccc2c(c1)CCCN2CC	i

Further results follow.
mol	GIRK2 act
COc1ccc(/C=C2\Oc3cc(OCC(=O)NN)ccc3C2=O)cc1	i
CCOC(=O)C1CCN(c2c([N+](=O)[O-])c(=O)n(C)c3ccccc23)CC1	i
COc1ccc(NC(=O)c2cc(-c3cccc([N+](=O)[O-])c3)oc2C)cc1	i
Cc1nc(NC(=O)CN(C)c2nc3c(Cl)cccc3s2)sc1C	i

An excerpt of these results, with values ahead of the structure.
GIRK2 act | Structure
i | COc1ccc(/C=C2\Oc3cc(OCC(=O)NN)ccc3C2=O)cc1
i | CCOC(=O)C1CCN(c2c([N+](=O)[O-])c(=O)n(C)c3ccccc23)CC1
i | COc1ccc(NC(=O)c2cc(-c3cccc([N+](=O)[O-])c3)oc2C)cc1
i | Cc1nc(NC(=O)CN(C)c2nc3c(Cl)cccc3s2)sc1C
